Assay outcomes deposited in PubChem by several laboratories.
FGF22 binding – FGF22 (human) thermal shift binding; Q9HCT0; recombinant FGF22 thermal shift, SYPRO orange fluorescence; percent of sucrose octasulfate shift, DMSO zero; calls only at 9.99 µM; 340,000 compounds, 1.5% hits; AID 651658;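 active means melting point raised past a set limit in the mean and every replicate; inconclusive means no clear call; three in four hits are not shown here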
Target sequence (Q9HCT0 whole entry, looked up): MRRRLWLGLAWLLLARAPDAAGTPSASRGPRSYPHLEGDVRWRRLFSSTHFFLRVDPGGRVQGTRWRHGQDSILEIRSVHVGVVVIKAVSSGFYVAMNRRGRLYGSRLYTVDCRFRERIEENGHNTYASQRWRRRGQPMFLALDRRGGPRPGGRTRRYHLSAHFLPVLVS
T cruzi repl – T. cruzi replication inhibition; T. cruzi beta-gal in NIH3T3, luminescence, 90 h; inhibition, % (test concentration not listed); 300,000 compounds, 1.4% hits;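 active means mean inhibition across valid replicates above about 55%, limit read from the data; inconclusive means mean below that limit but half or more replicates reach it; inactive means mean below it, under half of replicates reach it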;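 further: signal also drops with host cell toxicity which is not excluded here; 0% = plate median of DMSO wells and 100% = zero luminescence signal; higher percent means less beta-gal luminescence so fewer parasites; stock transfer was 50 nL into about 50 µL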
E coli growth – blocks Escherichia coli growth; OD600, 23 h; active compounds read low; OD600 absorbance (concentration not given with the values); 330,000 compounds, 0.21% hits;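 active means OD600 absorbance below the run mean of sample wells minus 3.6 SD, in any replicate, cut at about 0.56 in these data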;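 further: stock transfer was 300 nL into about 60 µL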
UCH37 DUB inh – inhibitors of human deubiquitinating enzyme UCH37 | Q9Y5K5 | purified proteasome/UCH37, Ub-AMC cleavage fluorescence | inhibition, % (no concentration beside the values) | 330,000 compounds, 0.33% hits | AID 588478;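 active means mean of two replicates above 20%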;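 further: 0% = compound-free wells with enzyme and 100% = wells lacking proteasome; stock transfer was 100 nL into about 20 µL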
Target sequence (Q9Y5K5 whole entry, looked up): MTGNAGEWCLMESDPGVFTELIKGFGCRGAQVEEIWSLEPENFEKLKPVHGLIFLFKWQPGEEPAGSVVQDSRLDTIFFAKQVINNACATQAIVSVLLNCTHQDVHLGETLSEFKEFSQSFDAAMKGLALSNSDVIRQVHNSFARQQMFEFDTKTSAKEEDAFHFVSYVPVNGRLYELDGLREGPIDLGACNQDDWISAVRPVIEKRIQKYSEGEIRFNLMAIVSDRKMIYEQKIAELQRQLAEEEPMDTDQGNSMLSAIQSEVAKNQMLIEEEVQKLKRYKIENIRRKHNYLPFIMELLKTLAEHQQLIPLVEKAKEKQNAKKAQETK
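Material: human UCH37 enzyme supplied as purified proteasome complex / Amount: 0.15 nM proteasome as dispensed / Buffer or medium: pH 7.4 Tris-HCl (50 mM) with ovalbumin, ATP-MgCl2, DTT / Times: preincubation 30 min, reaction 25 min, room temperature / Technique: AMC fluorescence from Ub-AMC cleavage, excitation 355 nm, emission 460 nm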
rRNA inh HTS – selective bacterial rRNA inhibition in E. coli; E. coli WT GFP vs humanized-ribosome RFP mutants, fluorescence, 24 h; active compounds read low; DMSO median 0, no signal -100; GFP signal change (wild-type ribosome), % (concentration not given with the values); 350,000 compounds, 1.6% hits;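 active means significant combined selectivity score with lowered wild-type GFP, culture density cut under 30%, mutant RFP and density less affected; inactive means any of these conditions unmet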; further: one replicate is shown; some compounds called inactive have numbers as strong as hits
Beta apoptosis – beta cell apoptosis inhibition; 300,000 compounds, 0.8% hits; INS-1E cytokine-induced death, ATP luminescence, 48 h; percent of positive-control rescue, neutral wells zero; protection from apoptosis, % (concentration not given with the values); AID 435005;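 active means all replicates at 75% or more, or half of them and the mean; inconclusive means half reach 75% but not the mean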;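 further: 0% = cytokine-treated negative control wells and 100% = positive control rescue; higher means more ATP so stronger rescue from cytokine killing; wells of about 40 µL received 100 nL stock; the first replicate is given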
MLL AF4-AF9 inh – MLL-AF4/AF9 protein interaction inhibition; P42568; AlphaScreen, biotin-AF4 peptide binding to FLAG-AF9; inhibition, % at 10 µM; 350,000 compounds, 0.47% hits; AID 651704;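 active means every replicate reaching a set inhibition limit, whatever the replicate mean, cut at about 25% in these data; inconclusive means mean inhibition reaches that limit but some replicates miss it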;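 further: 0% = plate neutral control median and 100% = total signal loss; the record names both 10 and 1 µM as test concentration; the first replicate is given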
Target sequence (P42568 whole entry, looked up): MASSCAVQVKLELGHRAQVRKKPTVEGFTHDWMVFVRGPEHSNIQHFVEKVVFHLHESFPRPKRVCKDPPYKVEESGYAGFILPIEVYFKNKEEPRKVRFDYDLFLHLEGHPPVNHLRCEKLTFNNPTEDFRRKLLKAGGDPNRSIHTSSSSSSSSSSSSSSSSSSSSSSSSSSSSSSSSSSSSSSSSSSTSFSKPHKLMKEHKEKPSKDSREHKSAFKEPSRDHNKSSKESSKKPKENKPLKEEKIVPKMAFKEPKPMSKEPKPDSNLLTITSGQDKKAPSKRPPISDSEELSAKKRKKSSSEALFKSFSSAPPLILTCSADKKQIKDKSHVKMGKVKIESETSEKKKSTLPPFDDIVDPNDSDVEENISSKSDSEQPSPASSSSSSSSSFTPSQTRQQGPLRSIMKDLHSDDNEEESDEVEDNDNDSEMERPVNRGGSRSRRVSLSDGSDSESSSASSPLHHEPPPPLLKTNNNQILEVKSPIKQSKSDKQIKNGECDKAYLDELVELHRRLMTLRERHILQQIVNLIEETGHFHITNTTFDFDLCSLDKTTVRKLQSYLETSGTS
Bfl-1 A1 inh – inhibitors of the anti-apoptotic protein A1, read as caspase activation; 330,000 compounds, 0.066% hits; AID 2462; caspase activation, % (no concentration beside the values); MEF A1-2A-BIM cells, Caspase-Glo 3/7 luminescence, 3 h; percent of clofoctol response, vehicle zero;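 active means over half of replicate activation scores above 10%, or exactly half above 10 with the replicate mean above 10; inconclusive means replicate mean below 10 yet half the replicates above 10; inactive means over half of replicates below 10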;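 further: wells of about 30 µL received 50 nL stock; many hits fall short of the cut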
rRNA inh HTS OD600 – also measured in rRNA inh HTS; calls as there; OD600 change, %; measured here: OD600 growth;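 optical density of the mix in the first replicate; 0 = DMSO median and -100 = no signal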
rRNA inh HTS RFP – also measured in rRNA inh HTS; calls as there; RFP signal change, %; measured here: RFP humanized mutant strains;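 first replicate; 0 = DMSO median and -100 = no signal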
* = called active by the depositor; i = inactive; ? = inconclusive; / = not tested or not shown.

SMILES	FGF22 binding	T cruzi repl	E coli growth	UCH37 DUB inh	rRNA inh HTS	rRNA inh HTS OD600	rRNA inh HTS RFP	Beta apoptosis	MLL AF4-AF9 inh	Bfl-1 A1 inh
O=C(CN1C(=O)C2CCCCC2C1=O)OCC(=O)c1ccc(F)cc1 (stereo not given)	i	/	0.64	0.5	8	11	-2.1	-1	1.1	-0.3
N#C/C(=C/Nc1ccccc1F)S(=O)(=O)c1ccc(Cl)cc1	i	-5	0.65	0.8	-21	-49	0.7	2	-1.1	-0.1
Cc1ccc2nc(N3C(=O)CNC3=S)sc2c1	i	-25	0.66	10	/	/	/	15	-0.5	-7.1
COc1ccc(C(=O)NCc2nnc(SCC(=O)N3CCc4ccccc43)n2C2CCCCC2)cc1	/	25	0.7	-0.5	/	/	/	-3	/	0.3
CC(Cc1cccs1)NC(=S)Nc1ccc(F)cc1 (stereo not given)	i	-17	0.67	3.5	-15	-24	-6.1	1	1.1	-0.4
Cc1cc(C)cc(OCc2ccc(C(=O)NN)o2)c1	i	7	0.67	1.8	-23*	-3.8*	2.6*	6	/	0.0
Cc1ccc(C)c2[nH]c(=O)c(CCNC(=O)c3ccc4c(c3)OCO4)cc12	/	21	0.69	-0.9	/	/	/	1	/	-0.1
CC1CN(c2ccc([N+](=O)[O-])c(NCCOc3ccc(Cl)cc3)c2)CC(C)N1 (stereo not given)	i	25	0.63	8.2	-54	-83	-21	-1	21	2.1
Cc1csc(NC(=O)CNS(=O)(=O)c2cccs2)n1	/	13	0.73	4.6	/	/	/	-2	/	-0.3
Cc1ccc(Cl)cc1N1CCN(C(=O)c2noc(C)c2[N+](=O)[O-])CC1	i	-20	0.69	1.5	-11	-19	5.0	/	6.7	/
COCCCNC(=O)c1ccc(CS(=O)(=O)c2ccc(OC)cc2)o1	i	-12	0.77	3.7	19	8	-1.3	-2	-3.1	0.3
CCOc1ccc(S(=O)(=O)Nc2cccc(C(=O)NCC3(N4CCCCC4)CCCCC3)c2)cc1	i	12	0.66	-0.7	1	-1	4.4	/	-28	0.4
CCC(NC(=O)c1ccccc1NC(=O)c1ccccc1)C(=O)NNC(=O)CSc1nc2ccccc2o1 (stereo not given)	/	1	0.68	1.3	-39	-49	-5.4	-2	-1.1	-0.3
Cc1nn(Cc2cccc(C(=O)O)c2)c(C)c1[N+](=O)[O-]	i	-12	0.72	4.9	5	-3	-6.6	-5	-7.2	1.0
Cc1ccnc(NC(=O)Cn2c(=O)oc3ccccc32)c1	i	-10	0.69	-1.6	4	14	1.5	-12	-0.5	1.3
Cc1nn(-c2ncc(C(F)(F)F)cc2Cl)c(=O)n1-c1ccc(F)cc1	i	-10	0.67	3.8	9	8	0.5	0	0.5	0.6
COC(=O)C1=C(C)Nc2nc(-c3ccccc3)nn2C1c1ccc(C)o1 (stereo not given)	i	19	0.71	4.3	-22*	-17*	3.6*	-3	6.1	-0.2
O=C(CCc1nnc(Cc2cccc(C(F)(F)F)c2)o1)NC1CC1	i	-1	0.72	2.5	-12	-34	18	-5	-0.7	0.0
CCOC(=O)/C(C#N)=C/c1ccc(N2CCN(Cc3ccccc3)CC2)cc1	i	-14	0.7	-0.6	54	7	26	-4	13	-0.9
CC(=O)c1ccc(NC(=O)CCc2nnc3ccc(NCc4ccco4)nn23)cc1	i	-2	0.73	3.3	8	8	1.1	-4	-1.8	-1.7
Cc1c(C(=O)NCCSCc2ccc(F)cc2)cnn1-c1ccc(Cl)cc1	i	2	0.66	5.2	-38*	-22*	-2.0*	/	-4.2	0.0
O=C(NCc1ccco1)C(NS(=O)(=O)c1cccc2nsnc12)c1ccccc1 (stereo not given)	/	0	0.69	5.2	/	/	/	-5	/	0.2
COc1ccc(NS(=O)(=O)c2cccc(C(=O)NNC(=O)NCCCl)c2)cc1	i	-23	0.67	1.8	11	12	0.7	1	1.7	0.2
CCn1nc(C)c(/C=N/NC(=O)Cn2cncn2)c1C	i	-5	/	/	9	0	2.5	/	-2.7	0.2
CCCCN(C(=O)CSc1nnnn1C)C1CCS(=O)(=O)C1 (stereo not given)	i	/	0.67	0.1	20	15	1.0	-1	-3.4	0.0

One compound at a time, from the list above. Order of screens: FGF22 binding, T cruzi repl, E coli growth, UCH37 DUB inh, rRNA inh HTS, rRNA inh HTS OD600, rRNA inh HTS RFP, Beta apoptosis, MLL AF4-AF9 inh, Bfl-1 A1 inh
O=C(CCc1nnc(Cc2cccc(C(F)(F)F)c2)o1)NC1CC1 across the screens: i, -1, 0.72, 2.5, -12, -34, 18, -5, -0.7, 0.0
O=C(NCc1ccco1)C(NS(=O)(=O)c1cccc2nsnc12)c1ccccc1 (stereo not given) across the screens: /, 0, 0.69, 5.2, /, /, /, -5, /, 0.2
O=C(CN1C(=O)C2CCCCC2C1=O)OCC(=O)c1ccc(F)cc1 (stereo not given) across the screens: i, /, 0.64, 0.5, 8, 11, -2.1, -1, 1.1, -0.3
CC(Cc1cccs1)NC(=S)Nc1ccc(F)cc1 (stereo not given) across the screens: i, -17, 0.67, 3.5, -15, -24, -6.1, 1, 1.1, -0.4
Cc1csc(NC(=O)CNS(=O)(=O)c2cccs2)n1 across the screens: /, 13, 0.73, 4.6, /, /, /, -2, /, -0.3

Next part
SMILES	FGF22 binding	T cruzi repl	E coli growth	UCH37 DUB inh	rRNA inh HTS	rRNA inh HTS OD600	rRNA inh HTS RFP	Beta apoptosis	MLL AF4-AF9 inh	Bfl-1 A1 inh
Cc1ccc(-c2nnc(-c3ccccc3)o2)cc1Br	/	2	0.75	-1.6	13	14	-2.1	-1	/	-2.9
O=[N+]([O-])c1cccc(-c2cn(-c3ccccc3)c(=S)[nH]2)c1	i	2	0.7	2.2	18	12	0.8	-3	-4.0	0.8
CCn1c(-c2cc(-c3cc(C)ccc3C)nc3ccccc23)n[nH]c1=S	i	7	0.72	5.7	-12	11	5.9	5	-3.0	0.0
COCc1ccc(-c2c(-c3cccc(OC)c3)sc3ccc(OC)cc23)cc1	i	/	0.73	1.2	14	17	4.1	0	-1.1	-1.3
O=C(Cc1ccc(F)cc1)NC1CCCCCC1	i	-7	0.65	5.3	5	-5	1.1	0	1.0	-0.2
COc1ccc(CC(NC(C)=O)C(=O)NC2CCN(c3ncccc3[N+](=O)[O-])CC2)cc1 (stereo not given)	i	-4	0.65	4.2	5	-3	0.2	-6	0.0	0.6
CC(C)OCCCn1c(=NC(=O)c2cccs2)c(C#N)cc2c(=O)n3ccccc3nc21	i	6	0.73	-189	5	-3	7.8	6	/	0.2
O=S(=O)(Nc1nc2ccccc2nc1Cl)c1ccc(Br)cc1	i	-1	0.66	-8.1	-3	-7	-0.9	-1	-1.9	?
Cc1cc(=O)oc2cc(OCc3ccc(C(=O)N4CCN(c5ccccc5)CC4)cc3)ccc12	i	43	0.72	-174	-14	-9	-3.0	1	1.6	1.0
CC1SC(C)C(=O)N(CC(=O)Nc2ccc3c(c2)OCO3)C1=O (stereo not given)	i	-11	0.69	2.8	14	7	4.5	-5	2.4	0.4
Cc1cccc(NC(=O)CSc2nnc(CSc3nc(C)cc(C)n3)o2)c1	/	-1	0.7	-1.7	/	/	/	0	/	-0.3
O=C(COc1ccc(S(=O)(=O)N2CCOCC2)cc1Cl)N1CCOCC1	i	-23	0.66	-0.8	4	8	0.5	-4	-5.9	-0.6
COc1cc(CCNC(=O)c2cnn3ccccc23)cc(OC)c1OC	i	-6	0.72	0.2	0	3	-2.5	-3	-1.6	-1.3
O=S1(=O)CCN2C(=N1)SC1=C2CCN(Cc2ccccc2)C1	/	0	0.78	-1.0	/	/	/	1	/	-0.8
c1ccc(CNc2ncnc3scc(-c4cccs4)c23)nc1	i	-10	0.7	-0.9	-27*	15*	2.2*	21	-1.9	-0.6
COc1cc2c(cc1OC)CN(Cc1ccc(C)cc1)CC2	i	-1	0.61	-17	-3	-6	-0.1	-1	4.1	-1.4
COc1ccc(NC(=O)CO/N=C2\CCCc3nonc32)cc1	i	1	/	/	10	14	-1.5	-5	1.4	1.1
CC(=O)c1ccc(N2Cc3ccccc3C2)cc1	i	-8	/	/	3	3	-2.6	8	0.9	-1.8
CC12CCC(C(=O)N3CCN(c4ncccn4)CC3)(c3nc4ccccc4nc31)C2(C)C (stereo not given)	/	18	0.73	-1.3	/	/	/	-17	/	0.6
C=CCSC1=N/C(=C/c2ccsc2)C(=O)N1c1ccccc1	i	5	0.68	-0.5	7	9	-7.3	-1	-4.1	0.4
O=C(CNc1cccc2ccccc12)N/N=C/c1ccccn1	i	-7	/	/	0	2	2.8	6	11	0.0
O=C(C[C@H]1C/C=C\CC[C@H](Cc2ccc(F)cc2)C(=O)OC[C@@H](Cc2c[nH]c3ccccc23)NC1=O)NCCO	i	/	/	1.0	-7	-15	3.8	1	-0.8	1.0
Nc1c(C(=O)Nc2ccc3c(c2)OCCO3)nnn1Cc1ccccc1Cl	i	-35	0.6	0.2	-3	-17	-1.6	93*	-27	-0.8
Cc1cccc(C(=O)OCC(=O)N2CC(=O)Nc3ccccc32)c1C	i	/	0.66	2.0	9	10	1.0	-2	-1.2	-0.2
O=C(C[n+]1ccccc1)Nc1ccccc1C(=O)O	i	-11	0.71	3.9	10	14	1.8	-3	-1.4	-0.1

(more compounds)
SMILES	FGF22 binding	T cruzi repl	E coli growth	UCH37 DUB inh	rRNA inh HTS	rRNA inh HTS OD600	rRNA inh HTS RFP	Beta apoptosis	MLL AF4-AF9 inh	Bfl-1 A1 inh
COc1ccccc1/C=C/C=C1\Oc2c(ccc(O)c2CN2CCN(CCO)CC2)C1=O	i	11	0.68	17	55	-5	5.7	/	14	0.1
CCC12C(=O)C(CC)(C(c3ccccc3)=C1c1ccccc1)[C@@H]1C(=O)N(c3ccccc3)C(=O)C12 (stereo not given in full)	/	35	0.72	0.3	/	/	/	29	/	-0.4
Cc1cc(OCC(=O)N(C(C)C)C(C)C)cc(C)c1Br	i	14	0.61	3.8	3	0	-6.0	-3	2.5	-0.1
COc1ccc(NC(=O)CSCC(=O)N(C)Cc2ccc3c(c2)OCCO3)cc1	i	/	0.66	-1.7	-1	7	-1.3	2	-0.9	0.4
C=CCc1cccc2cc(NC(C)=O)c(=O)oc12	/	10	0.66	-5.7	/	/	/	2	/	0.2
COc1cc(NC(=O)CCCN2C(=O)NC(C)(C)C2=O)cc(OC)c1	i	/	0.71	3.1	8	11	-3.7	1	-2.8	0.9
Cc1ccc(C(NC(=O)N2CCCCC2)=C(Cl)Cl)cc1F	i	-54	0.69	4.3	8	12	2.0	-17	-4.2	-0.3
NC(=O)CSc1nnc(-c2ccccc2F)n1C1CC1	i	-8	0.65	6.2	10	9	2.0	-7	-3.1	0.6
CC(=O)Nc1ccc(S(=O)(=O)NCc2ccc(C(=O)NCCN3CCCCCC3)cc2)cc1	/	-10	0.71	2.5	/	/	/	-2	/	0.6

These rows are one share of the data; rates above refer to the full screens.
